# CSC inhib: cancer stem cell inhibition; 1.1% of 300,000 active; AID 2717; inhibition, % at 7.5 µM; cancer stem cell-like cells viability, luminescence;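 active = mean at 75% or more and at least half the replicates too; inconclusive = mean and replicates disagree; tested in HMLE shEcad cells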;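 also: 0% = median of negative and 100% = median of positive control wells; the first replicate is given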
# Yeast UUG start: alters start codon recognition fidelity in yeast. S. cerevisiae UUG-firefly luciferase reporter, luminescence/redox ratio. activity score, % at 18.7 µM. 0.13% of 350,000 active. AID 602363;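 active = replicate mean at a twofold rise or more, about +100% in these data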;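 also: firefly luciferase made from a UUG start codon reports start codon fidelity; reporter light over untreated wells divided by growth signal over untreated wells; some hits fall short of that in this replicate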
# eIF4H FP inh: inhibitors of RNA binding by human eIF4H; eIF4H fluorescence polarization binding assay; inhibition, % at 35 µM; 0.94% of 290,000 active; AID 2012;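 active = 50% or more with normal probe brightness, or confirmed in later tests; inconclusive = above 50% with abnormal brightness, or retests that disagree; inactive = below 50% or failed in later tests; about a fifth of its hits are not listed in these tables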;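 also: calls also rest on retests at 20 µM and on dose response follow-up; 0% = protein and probe with vehicle and 100% = probe without protein; strong numbers were not always called active; many hits fall short of the cut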
# MT1-MMP act inh: inhibitors of human MT1-MMP activation | HT1080 RFP-PRO-GFP cells, GFP/RFP ratio fluorescence, overnight; percent of plate control window, DMSO zero | GFP/RFP ratio change, % at 20 µM | 0.061% of 360,000 active | AID 651647;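 active = GFP/RFP ratio change of at least 30% with cell ATP level not reduced by more than half and red fluorescence within 50% of control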; also: strong numbers were not always called active
#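 Assay system: HT1080 RFP-PRO-GFP cells. Benchmarks: DMSO vehicle wells and RFP-L50D-GFP reporter cell wells. Times: overnight cell settling, then overnight compound exposure, 37 °C, 5% CO2. Compound: 20 µM single dose, 1% DMSO. Read-out basis: GFP/RFP fluorescence ratio.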
# Env fusion inh: blocks HIV Env-driven cell-cell fusion. HeLa-JRFL Env/CEM21 cell fusion, luciferase. inhibition, % at 12.3 µM. 1.1% of 360,000 active. AID 651610;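 active = mean replicate inhibition score of at least 50 and every replicate individually at or above 50; inconclusive = only one of the two criteria met; inactive = mean below 50 and not all replicates reaching 50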;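 also: 0% = plate neutral controls and 100% = maraviroc near 300 nM; one replicate is shown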
# Rce1 inhib: inhibitors of yeast Ras-converting enzyme. yeast membranes, quenched prenylated peptide cleavage fluorescence. 0.27% of 290,000 active. AID 2563. calls only;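 active = fall in fluorescence gain of 50% or more versus controls, with final raw signal at or below 3038400; inconclusive = same 50% fall but final raw signal above 3038400; inactive = fall in fluorescence gain under 50%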;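 also: plate controls were neutral control wells for no effect and wells lacking membranes for full effect; tested at 10 µM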
# Target sequence (Q03530 whole entry, looked up): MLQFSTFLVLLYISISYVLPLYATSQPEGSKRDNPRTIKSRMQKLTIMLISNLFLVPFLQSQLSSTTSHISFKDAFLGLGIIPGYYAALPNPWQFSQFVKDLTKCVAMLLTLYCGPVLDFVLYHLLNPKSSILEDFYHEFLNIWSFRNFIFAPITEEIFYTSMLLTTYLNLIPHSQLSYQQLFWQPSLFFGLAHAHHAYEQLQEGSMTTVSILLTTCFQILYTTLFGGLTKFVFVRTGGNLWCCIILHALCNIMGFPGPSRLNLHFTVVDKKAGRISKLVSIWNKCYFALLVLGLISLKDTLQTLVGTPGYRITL
# PABP polyA inh: blocks human PABP binding to poly(A) RNA. 1% of 290,000 active. inhibition, % at 35 µM. fluorescence polarization. AID 2014;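 active = 50% or more with normal probe brightness, or confirmed in later tests; inconclusive = above 50% with abnormal brightness, or retests that disagree; inactive = below 50% or failed in later tests; about a fifth of its hits are not listed in these tables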;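 also: calls also rest on retests at 20 µM and on dose response follow-up; controls were probe without protein and protein plus probe with vehicle; some compounds called inactive have numbers as strong as hits; many hits fall short of the cut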
# Target sequence (P11940 whole entry, looked up): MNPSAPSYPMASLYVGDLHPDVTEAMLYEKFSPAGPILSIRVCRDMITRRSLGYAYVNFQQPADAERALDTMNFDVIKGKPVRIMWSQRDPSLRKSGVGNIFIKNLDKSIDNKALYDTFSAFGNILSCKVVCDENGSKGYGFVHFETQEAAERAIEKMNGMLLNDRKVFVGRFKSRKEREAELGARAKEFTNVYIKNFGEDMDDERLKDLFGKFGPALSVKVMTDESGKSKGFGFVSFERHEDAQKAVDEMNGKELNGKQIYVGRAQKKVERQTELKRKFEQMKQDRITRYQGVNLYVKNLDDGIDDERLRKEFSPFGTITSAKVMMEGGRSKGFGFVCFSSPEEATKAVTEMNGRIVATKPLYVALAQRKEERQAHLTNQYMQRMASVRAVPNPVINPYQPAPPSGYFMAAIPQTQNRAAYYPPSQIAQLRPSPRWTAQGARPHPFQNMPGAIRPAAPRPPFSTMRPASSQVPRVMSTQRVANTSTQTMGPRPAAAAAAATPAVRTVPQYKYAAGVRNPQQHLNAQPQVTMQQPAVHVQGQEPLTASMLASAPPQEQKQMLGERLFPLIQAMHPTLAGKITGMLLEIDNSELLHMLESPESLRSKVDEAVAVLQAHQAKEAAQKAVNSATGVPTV
# MT1-MMP act inh RFP: also measured in MT1-MMP act inh; calls as there; RFP signal change, %; measured here: RFP expression control read;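 0 = vehicle wells; hits needed this value within 50% of zero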
# Numbers without * were called inactive; i = inactive; u = inconclusive; x = no result given. These rows are one share of the data; the hit share may differ from the screen's.
# Values run as follows: eIF4H FP inh	Env fusion inh	Rce1 inhib	PABP polyA inh	MT1-MMP act inh RFP	MT1-MMP act inh	CSC inhib	Yeast UUG start
CCOC(=O)Nc1ccc(Oc2ccccc2)cc1
 : -1	2	i	-6	1	5	-9	-5
COc1ccc(Nc2nc3c(C)cccn3c(=O)c2C=NCc2ccccc2)cc1
 : -2	14	i	-6	-9	-5	0	x
O=C1CCC(=O)N1CNc1ccc(Oc2ccccc2)cc1
 : -7	x	i	-9	-3	-1	-3	-6
Cc1ccc(S(=O)(=O)NCc2ccccn2)c(C)c1
 : -8	-66	i	-3	3	0	-16	-17
O=C(COc1ccc2ccccc2c1)Nc1nnc(-c2ccco2)s1
 : 18	x	i	2	x	x	1	x
Fc1ccccc1-c1nc(NC2CCCC2)c2ccccc2n1
 : -12	23	i	2	-6	-7	15	-9
Cc1nnc(SCC(=O)Nc2c(Cl)cccc2Cl)n(N)c1=O
 : x	18	i	x	-1	7	x	-26
CCCS(=O)(=O)NC(=O)C1(C)CCN(C(=O)c2ccccc2OC)C1 (configuration not stated)
 : x	13	x	x	6	0	x	-17
CC(C)Nc1nnc(SC(C)C(=O)Nc2ccc(Cl)cn2)s1 (configuration not stated)
 : -2	9	i	u	-2	-3	5	x
CCOC(=O)c1ccc(NC(=O)c2nccnc2C(=O)O)cc1
 : 11	-12	i	6	7	2	16	-10
CC1COc2ccccc2N1S(=O)(=O)c1ccc(Cl)cc1 (configuration not stated)
 : 4	18	i	4	-6	-3	-12	x
CCCCCNC(=O)CCc1ccccc1
 : -6	-79	i	8	-3	0	-6	-4
CN(C)C(CNC(=O)c1ccc(Cl)c(S(=O)(=O)N2CCCCCC2)c1)c1ccccc1 (configuration not stated)
 : x	13	x	x	-21	-4	x	-12
COc1cc(OC)cc(-c2cc3nc(C)c(CCC(=O)Nc4nc(C)cs4)c(C)n3n2)c1
 : 5	50	i	2	-4	-4	-4	-2
Cc1cc(C(=O)COC(=O)[C@H](C)NC(=O)c2ccco2)c(C)n1Cc1ccco1
 : 22	-48	i	16	x	x	-9	x

# 11 neighbouring records out of the list so far, quoted:
# Values run as follows: eIF4H FP inh	Env fusion inh	Rce1 inhib	PABP polyA inh	MT1-MMP act inh RFP	MT1-MMP act inh	CSC inhib	Yeast UUG start
CCOC(=O)Nc1ccc(Oc2ccccc2)cc1
 : -1	2	i	-6	1	5	-9	-5
COc1ccc(Nc2nc3c(C)cccn3c(=O)c2C=NCc2ccccc2)cc1
 : -2	14	i	-6	-9	-5	0	x
O=C1CCC(=O)N1CNc1ccc(Oc2ccccc2)cc1
 : -7	x	i	-9	-3	-1	-3	-6
Cc1ccc(S(=O)(=O)NCc2ccccn2)c(C)c1
 : -8	-66	i	-3	3	0	-16	-17
O=C(COc1ccc2ccccc2c1)Nc1nnc(-c2ccco2)s1
 : 18	x	i	2	x	x	1	x
Fc1ccccc1-c1nc(NC2CCCC2)c2ccccc2n1
 : -12	23	i	2	-6	-7	15	-9
Cc1nnc(SCC(=O)Nc2c(Cl)cccc2Cl)n(N)c1=O
 : x	18	i	x	-1	7	x	-26
CCCS(=O)(=O)NC(=O)C1(C)CCN(C(=O)c2ccccc2OC)C1 (configuration not stated)
 : x	13	x	x	6	0	x	-17
CC(C)Nc1nnc(SC(C)C(=O)Nc2ccc(Cl)cn2)s1 (configuration not stated)
 : -2	9	i	u	-2	-3	5	x
CCOC(=O)c1ccc(NC(=O)c2nccnc2C(=O)O)cc1
 : 11	-12	i	6	7	2	16	-10
CC1COc2ccccc2N1S(=O)(=O)c1ccc(Cl)cc1 (configuration not stated)
 : 4	18	i	4	-6	-3	-12	x

# The list goes on:
# Values run as follows: eIF4H FP inh	Env fusion inh	Rce1 inhib	PABP polyA inh	MT1-MMP act inh RFP	MT1-MMP act inh	CSC inhib	Yeast UUG start
O=C(NC(N1CCOCC1)C(Cl)(Cl)Cl)c1ccccc1Cl (configuration not stated)
 : 4	3	i	12	1	-2	-12	3
O=C(O)c1c2c(nc3ccccc13)/C(=C/c1c(F)cccc1F)CCC2
 : 1	-44	i	4	2	1	15	-7
COc1ccc(NC(=O)Nc2ccc3c(c2)OCO3)c(C)c1
 : 8	-17	i	6	5	4	10	-12
CC(=O)c1c(C)[nH]c(C(=O)OCc2nnc(-c3ccccc3)o2)c1C
 : -9	x	i	-2	-17	5	-2	-11
O=C(CSc1nnnn1-c1ccc2c(c1)OCCO2)c1cccc2c1OCCO2
 : -16	-9	i	-9	-3	4	-16	-10
Cc1ccccc1-n1nnnc1SC(C)C(=O)Nc1ccc(N2CCN(C)CC2)cc1 (configuration not stated)
 : 5	5	i	-6	-2	7	36	1
COC(=O)CSc1nnc(CNC(=O)c2ccco2)n1-c1ccc(F)cc1
 : -10	x	i	-2	3	-2	-5	-1
CC(C)(C)NC(=O)CSc1ncnc2c1cnn2-c1ccccc1
 : -8	-9	i	-7	-24	2	11	-8
CCN(CC)CCCNc1nc2ccccc2[nH]1
 : 2	-8	i	-6	5	2	-5	-8
NS(=O)(=O)c1ccc(CCNC(=O)c2ccc(Cn3c(=O)[nH]c4ccccc4c3=O)cc2)cc1
 : -6	18	i	-8	1	0	-7	x
CCN(CC)S(=O)(=O)c1cc(NC(=O)C2CSC3(C)CCC(=O)N23)ccc1C (configuration not stated)
 : x	-14	x	x	1	5	x	1
Cc1ccc(S(=O)(=O)N2CCCCC2)cc1C(=O)Nc1ccc(S(=O)(=O)Nc2ncccn2)cc1
 : u	-2	i	u	0	-3	6	-4
NC(=O)C[C@@H]1NC(=O)c2cc([N+](=O)[O-])cc(F)c2NCCCC[C@@H](C(N)=O)NC(=O)[C@H](CO)NC1=O
 : -3	13	x	-6	x	x	x	x
CCOc1ccc(S(=O)(=O)NCCCn2ccnc2)cc1
 : -5	1	i	11	-3	4	41	-25
CCn1nnnc1SCC(=O)Nc1ccc(OC)cc1
 : -9	-17	i	3	0	-2	-6	-16
NC(=O)Cn1c(=O)n(CCCC(=O)NC2CCN(Cc3ccccc3)CC2)c(=O)c2ccccc21
 : -3	x	i	-3	1	-5	-10	4
Cc1noc(C)c1NC(=O)Nc1cccc2c1O[C@@H](CN(C)C(=O)Nc1ccc3c(c1)OCO3)[C@@H](C)CN([C@H](C)CO)C2=O
 : x	-40	x	x	-1	11	-11	-2
Clc1ccccc1-c1ncc2ccccn12
 : -1	1	i	-2	1	1	-6	x
Cc1ccc(CNC(=O)c2cn(C)c3ccc(S(=O)(=O)N4CCOCC4)cc3c2=O)cc1
 : -10	-8	i	0	3	2	-7	0
COc1ccc(C=O)cc1COc1ccc(Cl)cc1[N+](=O)[O-]
 : -3	-70	i	2	-3	-4	12	-14
Cc1ccc(OC2CCN(C(=O)C3CCC(=O)N(C4CC4)C3)CC2)cc1 (configuration not stated)
 : 2	-6	i	5	-3	4	0	-10
S=c1[nH]nc(-c2ccccc2)n1CC1CCCO1 (configuration not stated)
 : 0	x	x	0	-1	-1	x	-18
COC(=O)c1cc(OC)c(OC)cc1NC(=O)C(C)c1ccc([N+](=O)[O-])cc1 (configuration not stated)
 : 9	10	i	-9	-1	-2	-9	x
CCCc1cc2c(=O)n(NC(=O)c3nn(C)cc3[N+](=O)[O-])c(C)nc2s1
 : -5	3	i	31	1	-1	x	x
COc1ccc(OCCCCN2CCC(C)CC2)cc1
 : 12	-14	i	-2	4	4	-11	-5
COc1ccc(OCCn2nnc(-c3ccc(Cl)cc3)n2)cc1
 : 6	4	i	11	1	-1	-9	x
CN(C)c1ccc(/C=N/NC(=O)c2cnc3ccccc3c2)cc1
 : u	7	i	u	1	2	12	-4
O=C(c1nc2ccccn2c1CNCCCn1cccn1)N1CCCC1
 : 0	-11	i	3	3	-2	10	-13
CN(C)c1nc(SCCOC(=O)c2ccccc2)nc(N(C)C)n1
 : -3	-3	x	11	6	4	-6	-8
O=C(COC(=O)c1ccccc1NC(=O)c1ccco1)NC1CCCCC1
 : 0	x	x	6	-1	4	1	x
CC(C)c1ccc(NC(=O)NCc2cccnc2)cc1
 : -9	2	i	-4	2	3	8	-21
CC(=O)CCc1oc2ccc(C)cc2c1Cc1ccccc1
 : 1	7	i	9	1	-4	1	0
Cc1ccc(S(=O)(=O)c2nc(S(C)(=O)=O)sc2N(C)C)cc1
 : -6	x	i	0	2	1	-20	-16
O=C(c1n[nH]c(=O)c2ccccc12)N1CCN(S(=O)(=O)c2ccccc2Cl)CC1
 : x	-5	x	x	-2	-4	x	8
O=C(c1cccc(-c2ccc(O)cc2)c1)N1CCN(c2ccc(F)cc2)CC1
 : 2	10	i	13	-6	-4	11	x
Cc1ccc(O)c(C(=O)c2cc(C#N)c(=O)n(CC3CCCO3)c2)c1 (configuration not stated)
 : 1	x	i	1	-4	-6	-9	x
CC(C)NC(=O)C1CC=CCC1C(=O)O (configuration not stated)
 : 2	6	i	9	-2	0	-6	-20
COc1ccc(Cc2c(C3CCCCC3)nc3c(C)cc(Br)cn23)c(C)c1
 : x	14	x	x	-15	-10	x	-10
Cc1cccc(N2CCN(C(=O)Cn3c(=O)[nH]c4ccsc4c3=O)CC2C)c1 (configuration not stated)
 : 2	33	i	2	-6	-8	-24	-2
O=C1c2ccc(Oc3ccc([N+](=O)[O-])cc3)cc2C(=O)N1CCO
 : -8	-6	i	-11	3	2	-16	4
COc1ccc(S(=O)(=O)Nc2cc(C)ccn2)cc1
 : -3	-33	i	-2	3	0	-21	1
COCC1CCN(Cc2cn[nH]c2-c2ccc(OC)cc2F)C1 (configuration not stated)
 : -3	10	i	-6	7	5	-13	-7
O=C(Nc1ccccc1C(=O)N/N=C/c1ccco1)c1ccccc1
 : 2	-3	i	0	2	2	-4	-20
CC1CCCCC1NC(=O)CCNC(=O)N1CC(=O)Nc2ccccc21 (configuration not stated)
 : 5	-6	i	6	-1	-1	-9	-12
COc1cc(/C=C/C(=O)OCC(=O)N2CCCC2)cc(OC)c1OC
 : x	-22	x	x	2	6	x	-2
O=C(c1ccco1)N1CCN(C(=O)c2cc3c(s2)-c2ccccc2OC3)CC1
 : -3	-1	i	3	4	2	-12	-9
O=C(CCn1c(=O)oc2ccccc21)NCCN1CCOCC1
 : -5	15	i	-4	9	7	-3	-22
CCOC(=O)C1CCCN(c2cc(=O)n(C3CCCCC3)c(=O)[nH]2)C1 (configuration not stated)
 : 7	-2	i	3	4	3	7	x
OC(Cc1cccc(Br)c1)c1ncc(-c2cccc(C(F)(F)F)c2)[nH]1 (configuration not stated)
 : x	18	x	x	0	-3	x	-11
O=C(Nc1ccnc(-c2ccncc2)n1)c1ccc(F)cc1
 : 8	-14	i	13	0	3	-3	x
COC(=O)c1sc(SC)c(S(=O)(=O)C(C)C)c1N/N=C(\C#N)C(=O)c1ccccc1
 : 0	2	i	7	-5	8	19	x
O=C(O)CCN1CCc2ccccc21
 : 13	-51	i	20	5	0	-5	-3
CN1CCN(S(=O)(=O)c2cccc(C(=O)N(C)CC(=O)Nc3ccc(F)c(F)c3F)c2)CC1
 : x	x	i	x	1	-1	-8	x
CC(C)[C@H](NS(=O)(=O)c1ccc2c(c1)OCCO2)C(=O)OCC(=O)Nc1ccccc1Cl
 : -7	-7	i	-3	-1	1	-2	x
CC(C)c1nnc(NC(=O)Cn2nc(-c3ccc4c(c3)OCCO4)ccc2=O)s1
 : -10	-8	i	7	8	20	5	-4

# Screens (PubChem BioAssay)
